Bioassay records from PubChem BioAssay.
Calb biofilm kill: clotrimazole potentiators killing C. albicans biofilm, primary screen, 4-compound mixtures. hit rate 0.02% among 120,000. C. albicans biofilm persisters + clotrimazole, fluorescence viability; primary screen in compound mixtures of four per well. inhibition, % at 7.6 µM;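 active = inhibition above 30.3% in the primary screen of four-compound pools, then above 30% when the compound was retested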;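 note: compounds exposed to preformed 24 h biofilms for 48 h; the number belongs to the whole pool; some results filed as inactive read as strong as hits; inactives centre near 12; 0% = biofilm with clotrimazole alone and 100% = kill control; retested singly at about 60 µM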
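Test system: C. albicans biofilms. Buffer or medium: RPMI/MOPS medium, pH 7.0. Timing: 48 h compound exposure at 37 °C. Technique: Alamar Blue fluorescence. Evaluation: percent inhibition of biofilm viability.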
Active calls of the source: *. Some of the compounds tested; rates above refer to the full screens.

compound	Calb biofilm kill
Clc1ccc(-c2ccc(/C=N/Nc3cc(N4CCOCC4)nc(N4CCOCC4)n3)o2)cc1	13.7
Cc1ccc(/C=C/C(=O)Nc2cc(=O)n(C)c(=O)n2C)o1	5.6
O=C(Cc1cccs1)NCCc1cn2ccccc2n1	15.8
O=[N+]([O-])/C(C=Nc1ccccc1O)=C\Nc1ccccc1O	29.7
C=CCOc1c(Cl)cc(CNn2cn[nH]c2=S)cc1OC	16.9
Cc1cc(O)cc2c(=O)c3ccccc3sc12	14.6
COc1cccc(CC(=S)N2CCOCC2)c1	16.8
CN(C)c1ccc(C(O)P(=O)(OCc2ccccc2)c2ccc(N(C)C)cc2)cc1 (stereo unspecified)	24.0
Cc1nc2ccc(C(=O)Nc3cccc([N+](=O)[O-])c3)cc2s1	19.1
Cc1ccccc1C(=O)Nc1cc(S(=O)(=O)N2CCCCC2)ccc1N1CCN(C)CC1	4.4
CCOCCCNCc1ccc(Cl)cc1	7.5
O=C(O)c1cnn2c(-c3ccc(F)cc3)ccnc12	52.8
O=C(/C=C/c1ccco1)N(Cc1cccc(Cl)c1)C1CCS(=O)(=O)C1 (stereo unspecified)	19.2
Cc1ccc(NC(=O)N2CCC(C(=O)Nc3ccc(C)cc3C)CC2)cc1	10.4
CCOC(=O)C1CCN(c2cc(=O)n(-c3ccccc3Cl)c(=O)[nH]2)CC1	12.7
NC(=O)COC(=O)c1cc(=O)[nH]c2ccccc12	15.8
CC(C)CN(C(=O)COC(=O)CNC(=O)c1ccc(Cl)cc1)C1CCS(=O)(=O)C1 (stereo unspecified)	17.9
CC(=O)c1cc(C(=O)N2CCc3c([nH]c4ccccc34)C2CC(C)C)[nH]n1 (stereo unspecified)	13.2
CCC(=O)N1C(=O)CCN(C(C)=O)c2ccccc21	11.9
CCN1CCN(CC(=O)N2N=C(c3cccs3)CC2c2ccc(OC)c(OC)c2)C(=O)C1=O (stereo unspecified)	-2.8
CCOC(=O)N1C/C(=C\c2ccccc2)C(=O)/C(=C/c2ccccc2)C1	18.8
C=CCSC1=Nc2cc(OC)c(OC)cc2C2=NC(=O)CN12	3.6
CC(C)C[C@H](NC(=O)c1[nH]cnc1C(=O)Nc1ccc(Cl)cc1)C(=O)OC(C)(C)C	11.8
COc1cc(C(=O)Nc2ccc(Cl)c([N+](=O)[O-])c2)cc(OC)c1OC	10.0
O=C(O)c1csc(N/N=C/c2ccc(Br)cc2)n1	29.1
O=S(=O)(O)C1CCNCC1	16.8
CSc1ccccc1NC(=O)CN(C)CC(=O)Nc1c(F)cccc1F	10.8
CCCCCCCCCCCCCCCC[n+]1ccc(C(N)=O)cc1	12.3
COc1ccc(NC(=O)NN2CCOCC2)cc1OC	5.8
CNc1nc(-c2ccc3c(c2)CCN3C(=O)CC(C)(C)C)c(C)s1	0.8

For reference, two of the compounds above.
compound	Calb biofilm kill
COc1ccc(NC(=O)NN2CCOCC2)cc1OC	5.8
CNc1nc(-c2ccc3c(c2)CCN3C(=O)CC(C)(C)C)c(C)s1	0.8

Following part:
compound	Calb biofilm kill
CC1(C)C(=O)OC(/C=C\c2ccccc2)C(C)(C)C1=O (stereo unspecified)	3.2
Cn1cc(CN2CCCC(C(=O)c3cccs3)C2)c(-c2cccc(Cl)c2)n1 (stereo unspecified)	24.4
NC(=O)COC(=O)CCSc1ccc(Cl)cc1	13.9
O=C(O)CCNC(=O)C12CC3CC(CC(C3)C1)C2	25.2
O=C(N/N=C/C=C/c1ccccc1[N+](=O)[O-])c1ccncc1	26.0
O=C(CCc1ccccc1)Nc1ccc2ccccc2n1	4.8
CC(/C=N/NC(=O)c1cnccn1)=C\c1ccco1	20.4
O=C/C(=C\Nc1ccc(Cl)cn1)c1nc2ccccc2o1	-1.2
COc1ccc(CCNC(=O)c2ccc3c(c2)OCCO3)cc1	-5.5
COCCCNC(=O)COc1ccc(Br)cc1Cl	12.9
O=C(CC1C(=O)NCCN1Cc1ccccc1C(F)(F)F)NCCn1cccn1 (stereo unspecified)	21.8
O=C(CN1CCN(c2ccccc2O)CC1)Nc1cc([N+](=O)[O-])ccc1Cl	8.1
Cn1cccc1/C=N/NC(=O)Cc1cccc2ccccc12	17.2
O=C(COc1ccccc1)Nc1ncn[nH]1	15.4
COc1ccc(CNC(=O)COC(=O)/C=C/c2ccc(Cl)cc2)cc1	14.2
O=C(Nc1ccc2ccccc2c1)c1ccc(Cl)cc1Cl	18.8
CCCCCOCC1CC(C/C(C)=N/NC(N)=O)(C(=O)OCC)C(=O)O1 (stereo unspecified)	7.5
O=C(Nc1ccc(S(=O)(=O)N2CCOCC2)cc1)c1cc(-c2cc(Cl)ccc2O)n[nH]1	10.3
CCOC(=O)c1sc2nc(CN3CCN(c4cccc(C(F)(F)F)c4)CC3)[nH]c(=O)c2c1C	25.1
O=C(OCc1cnc(Cl)s1)c1cccs1	11.4
O=C(/C=C/c1ccc(-c2cccc([N+](=O)[O-])c2)o1)N1CCOCC1	14.6
COc1cc(C(C)=O)ccc1COc1ccc(C(=O)OCC(=O)NC(C)(C)C)cc1OC	20.9
COc1ccccc1Nc1nc(N)nc(CCl)n1	23.1
Cc1ccc(C2CC2C(=O)NNC(=S)Nc2cccc(C)c2)cc1 (stereo unspecified)	12.2
CC(C)(C)OC(=O)N[C@@H](Cc1ccccc1)c1nnc(SCC(N)=O)o1	16.1
CCN(CC)S(=O)(=O)c1ccc2[nH]c(=O)cc(C(=O)Nc3ccc(C)cc3)c2c1	19.5
CCOc1ccc(CNC(=O)CCc2cn(Cc3ccccc3)c3ccccc23)cc1	1.8
CN1N=C(C(F)(F)F)CC1=O	16.7
c1csc(-c2ccnc3ncnn23)c1	7.7
COc1ccc(CCNC(=O)CSc2nnc3ccc(-c4cccnc4)nn23)cc1	16.3
Cn1c(CN2CCOCC2)nnc1SCc1ccc(C#N)cc1	9.3
CCCNC(=O)N1CCN(Cc2ccco2)CC1	-10.5
CC(=O)C1=C(c2ccccc2)NC(=S)NC1c1ccc(O)c(O)c1 (stereo unspecified)	12.6
Cc1cc(CCCCCCCCc2cc(C)cc(=O)o2)oc(=O)c1	-2.6
Cc1ccc(Oc2ccc(OCC(=O)NC(CC(C)C)C(=O)O)cc2)cc1 (stereo unspecified)	1.2
O=C(Nc1nc(-c2cc3ccccc3o2)cs1)c1ccc(S(=O)(=O)N2CCCC2)cc1	11.0
CCOc1ccc(-c2nnn(CC(=O)NCc3ccccc3)n2)cc1	9.6
Cc1ccc(NC(=S)N(CCCN2CCCC(C)C2)Cc2ccco2)cc1C (stereo unspecified)	9.2
CC(C)N(Cc1ccccc1)C(=S)Nc1ccc(F)cc1	14.4
Cc1sc2ncnc(SCC(=O)NNC(=O)c3ccco3)c2c1C	16.4
COC(=O)CSc1ccc2nnc(CCNS(=O)(=O)c3ccc(C)cc3)n2n1	11.6
Cc1ccsc1C1Nc2ccccc2C(=O)N1O (stereo unspecified)	11.9
Cc1cc(C)c([C@@H]2C[C@H]3CN(C4CCCC4)C(=O)[C@]34CCCN24)c(-n2cccn2)c1	11.4
Cc1cc(-c2csc(NC(=O)c3ccc(C#N)cc3)n2)c(C)n1Cc1ccco1	19.0
CCc1ccccc1N1C(=O)C2C3CC(=O)C(c4ccccc43)C2C1=O (stereo unspecified)	8.1
O=c1[nH]c(SCc2ccccc2Cl)nc2[nH]ncc12	18.1
C(=Nc1ccc(N2CCOCC2)cc1)c1c[nH]c2ccccc12	29.3
CCOc1ccc2[nH]c(=O)c(CN(CCN3CCCC3)C(=S)Nc3ccccc3OC)cc2c1	2.6
Cc1[nH]n(-c2nc(-c3cccc([N+](=O)[O-])c3)cs2)c(=O)c1C	10.5
COC(=O)c1sc(N)c(C(=O)OC)c1COC(=O)[C@@H](NS(=O)(=O)c1cccc(Cl)c1)C(C)C	4.0
Cc1ccc(Cn2nc(C)c(NC(=O)C3CC3)c2C)cc1	19.4
COc1ccc(C(=O)C[n+]2ccccc2/C=N/O)cc1	13.3
N/C(Cc1nc2ccccc2s1)=N\O	7.8
O=C(COC(=O)c1ccccc1)Nc1ccccc1Sc1ccccc1	23.8
CCOC(=O)/C=C(\C)Sc1cc(O)c2ccccc2c1O	8.0
COC(=O)c1cnc(NNS(=O)(=O)c2ccc(C(F)(F)F)cc2)nc1C(F)(F)F	20.6
Cc1cccc(Nc2nc(N)nc(CCl)n2)c1	11.7
Cc1ccc(Cn2nnc3c(=O)n(CC(=O)N4CCCc5ccccc54)cnc32)cc1	14.7
Fc1cccc(Nc2ncnc3sc4c(c23)CCC4)c1	14.5
C/C(=N\NC(=O)c1sccc1-n1cccc1)c1cccs1	-2.9

(cont.)
compound	Calb biofilm kill
COC(=O)c1ccc(OC(=O)CCN2C(=O)C3CCCCC3C2=O)cc1 (stereo unspecified)	18.9
CNC(=O)c1ccccc1Sc1ccccc1C#N	26.7
CCOc1cc(NC(=O)c2ccccn2)c(OCC)cc1NC(=O)c1ccc(OC)cc1	4.6
CCCc1nnc(NC(=O)Nc2ccc(OC)cc2)s1	15.0
CCCCn1c(SCC(=O)NC2CCS(=O)(=O)C2)nc2cc(S(N)(=O)=O)ccc21 (stereo unspecified)	-2.6
CCCCOC(=O)c1ccc(O)cc1	13.2
NC(=O)c1ccc2c(c1)S(=O)(=O)c1ccccc1C2=O	5.5
CCOc1ccc(OCC)c(S(=O)(=O)NCCOC23CC4CC(CC(C4)C2)C3)c1	12.4
CC1(C)CC(CC(=O)O)CC(C)(C)N1	13.8
CCCC[C@H](CN(N=O)[C@@H](Cc1ccccc1)CN(C)N=O)N(CCc1ccccc1)N=O	14.2
COc1cc(NC(=O)CN2C(=O)NC(C)(c3ccc4ccccc4c3)C2=O)c(C)cc1[N+](=O)[O-] (stereo unspecified)	-0.1
CCC(=O)N1c2ccccc2NC2=C(C(=O)CCC2)C1c1ccco1 (stereo unspecified)	16.6
CCCCCC(=O)NC(=S)Nc1ccc(N2CCOCC2)cc1	7.6
CCN(CC)S(=O)(=O)c1cc(NC(=O)CSc2nccn2C)ccc1C	-1.9
CN(C)C(=O)/C(=C\c1cccc(Oc2ccccc2)c1)NC(=O)c1ccccc1	18.1
O=C(COC(=O)C1CCN(S(=O)(=O)c2ccc3c(c2)OCCO3)CC1)Nc1cccc2ccccc12	20.3
COc1ccc(/C=N/NC(=O)c2cccnc2)cc1COc1ccc(NC(C)=O)cc1	8.1
Cc1cc(Br)cc2c1NC(=O)C2(O)CC(=O)c1ccco1 (stereo unspecified)	-12.9
C=CCn1c(=O)c(C(=O)Nc2cccnc2)c(O)c2ccccc21	17.0
CCN(CC)S(=O)(=O)c1ccc(C(=O)NCc2n[nH]c(=S)n2-c2ccc(Cl)c(Cl)c2)cc1	11.2
CCn1cc(/C=C/C(=O)c2ccc(O)cc2)c(C)n1	4.3
Oc1cccc(NC(=S)Nc2cccnc2)c1	2.8
C=CCOc1c(Br)cc(CNc2ccc(NC(=O)C(C)C)c(OC)c2)cc1OCC	9.8
CCCSc1nc2cc(OC)c(OC)cc2c(=N)n1CCCN1CCOCC1	13.7
CS(=O)(=O)Nc1ccc(S(=O)(=O)NC2CCCCC2)cc1	0.5
COc1ccccc1C(c1nnnn1C(C)(C)C)N1CCN(Cc2ccccc2)CC1 (stereo unspecified)	7.0
O=C(Cc1ccccc1)NN1C(=O)/C(=C/c2ccccc2C(=O)O)SC1=S	8.8
COc1cc(OC)cc(C(=O)NCCSC2CCCCC2)c1	15.7
Cc1onc(-c2c(Cl)cccc2Cl)c1C(=O)c1c[nH]c(C(=O)NCC2CCCO2)c1 (stereo unspecified)	5.1
CCN1C(=O)C(CC(=O)Nc2cccc(C(C)=O)c2)S/C1=N\c1ccccn1 (stereo unspecified)	5.5
COc1cc2c(cc1OC)C(=O)Cc1ccc3c(c1CN(C)CC2)OCO3	19.9
CC1SC(C)C(=O)N(CC(=O)NCc2ccc(F)cc2)C1=O (stereo unspecified)	13.3
Cn1cc(CN2CCC[C@H]2CO)c(-c2cccc(Cl)c2)n1	27.4
Cc1ccccc1CN1C(=O)CS/C1=N/N=C/c1ccco1	22.4
CNc1nc(=S)[nH]c2ccccc12	2.5
CCc1nn(-c2ccccc2)c(N)c1C#N	18.0
Oc1ccccc1-c1nc2ccccc2nc1-c1ccccc1	19.2

Rewritten as labelled records: three of the compounds above
> CC1SC(C)C(=O)N(CC(=O)NCc2ccc(F)cc2)C1=O (stereo unspecified)
  Calb biofilm kill: 13.3
> Cn1cc(CN2CCC[C@H]2CO)c(-c2cccc(Cl)c2)n1
  Calb biofilm kill: 27.4
> Cc1ccccc1CN1C(=O)CS/C1=N/N=C/c1ccco1
  Calb biofilm kill: 22.4
